miR-21 reporter: qHTS Assay for Modulators of miRNAs and/orActivators of miR-21; 340,000 tested, under 10 active; HeLa miR-21 FLuc reporter, luciferase, 48 h; Potency, µM (highest dose often 38.3 µM), inactives show top-dose reporter change, positive = more light; active = well fitted rising curve with a large enough effect; inconclusive = small, poorly fitted or top-dose-only effect; inactive = no such curve, though single readings can be large or run the other way;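 also: % of control where 0% means no effect; miR-21 action dims this reporter so a rising signal means less miR-21 action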
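Compounds were titrated across several concentrations (up to approximately 40 uM) and incubated 48 hours with HeLa miR-21-FLuc reporter cells (miR-21 target sequence downstream of FLuc, endogenous miR-21). Readout was firefly luciferase luminescence after lytic detection reagent.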
Rango release inh: qHTS Assay for Inhibitors of RanGTP induced Rango (Ran-regulated importin-beta cargo) - Importin beta complex dissociation | hit rate 0.071% among 340,000 | Snurportin-1 (Homo sapiens) + GTP-binding nuclear protein Ran (Homo sapiens) + Importin … | Potency, µM (highest dose often 46.1 µM), inactives show at the top dose activity change, negative = inhibition | Biochemical FRET Rango-importin beta, RanGTP-induced dissociation; active means falling FRET ratio curve, often poorly fitted, with flat reads before Ran was added; inconclusive means other falling curves, or compound fluorescence or quenching; inactive means flat or rising ratio curve;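 also: potency is read from the fitted curve at half-maximal effect; % of control where 0% means no effect; nearly all actives have a fitted effect of over 45% in size; -100% = wells without RanGTP and RCC1; the record marks most hits as doubtful in a second field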
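Two FRET readings bracket the reaction: one 5 min after compound meets Rango–importin beta, another 45 min after RanGTP-RCC1 (0.6 uM Ran, 0.2 uM RCC1, 2 mM GTP) is added. Only the second defines inhibition.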
GLA inh pH 4.5: qHTS Assay for Inhibitors of Human alpha-Galactosidase at pH 4.5 | activity change, negative = inhibition, % at 105 µM | 230,000 tested, under 10 active | Alpha-galactosidase A (Homo sapiens), P06280 | AID 1467, 2008 | purified enzyme, 4-MU-alpha-Gal fluorescence, pH 4.5; inconclusive = small, poorly fitted or top-dose-only inhibition, or a rising curve; inactive = flat fitted curve, though single readings scatter; no compound was filed as active;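 also: 0% = full activity with enzyme and -100% = basal without enzyme; dose as in the result columns while the protocol names 77 µM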
Rango-impB inh: qHTS Assay for Inhibitors of Rango (Ran-regulated importin-beta cargo) - Importin beta complex formation | Rango CFP/YFP FRET sensor + importin beta, 45 min | Potency, µM (top dose mostly 92.2 µM), inactives show at the highest dose inhibition of complex formation | hit rate 0.031% among 340,000 | Importin subunit beta-1 (Homo sapiens), Q14974 | AID 540263, 2011; active = rising FRET ratio curve, often small or poorly fitted; inconclusive = mostly compound fluorescence or quenching in the first reads; inactive = flat curves in all reads;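 also: potency is read from the fitted curve at half-maximal effect; 0% = DMSO wells and 100% = buffer wells lacking importin beta; nearly all actives have a fitted effect of over 15% in size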
Target sequence (Q14974 whole entry, looked up): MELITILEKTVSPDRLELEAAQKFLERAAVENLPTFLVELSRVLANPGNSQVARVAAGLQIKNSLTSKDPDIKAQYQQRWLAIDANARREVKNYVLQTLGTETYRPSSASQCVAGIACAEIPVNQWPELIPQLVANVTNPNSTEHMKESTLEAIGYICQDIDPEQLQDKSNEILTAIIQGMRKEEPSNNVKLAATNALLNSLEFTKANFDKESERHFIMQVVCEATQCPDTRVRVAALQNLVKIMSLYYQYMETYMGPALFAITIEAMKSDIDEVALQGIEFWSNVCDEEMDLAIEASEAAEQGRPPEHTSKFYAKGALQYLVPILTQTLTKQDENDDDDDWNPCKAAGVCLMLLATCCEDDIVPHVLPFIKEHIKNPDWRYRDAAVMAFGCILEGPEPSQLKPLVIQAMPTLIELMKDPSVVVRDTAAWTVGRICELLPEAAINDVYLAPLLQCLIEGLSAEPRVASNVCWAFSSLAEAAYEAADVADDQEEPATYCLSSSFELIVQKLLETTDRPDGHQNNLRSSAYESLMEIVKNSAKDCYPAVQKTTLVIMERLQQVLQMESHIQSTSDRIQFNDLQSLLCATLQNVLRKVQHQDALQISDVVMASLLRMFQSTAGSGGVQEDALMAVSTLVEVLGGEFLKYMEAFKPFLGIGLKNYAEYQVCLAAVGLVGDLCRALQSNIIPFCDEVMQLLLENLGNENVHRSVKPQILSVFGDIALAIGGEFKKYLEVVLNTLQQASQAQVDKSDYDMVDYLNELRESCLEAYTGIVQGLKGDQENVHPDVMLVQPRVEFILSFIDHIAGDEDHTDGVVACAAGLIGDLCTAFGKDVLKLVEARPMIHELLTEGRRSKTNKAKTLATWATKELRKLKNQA
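Inhibition scored from the CFP 486 nm/YFP 530 nm FRET ratio 45 min after adding 0.125 microM importin beta to 50 nM Rango biosensor preincubated 5 min with compound (room temperature, PBS with DTT, Tween-20, BSA). No-importin wells as positive control.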
* = called active by the depositor; u = inconclusive; x = not tested or not shown; & = joins results of further samples.

miR-21 reporter | Rango release inh | GLA inh pH 4.5 | Rango-impB inh | smiles
-3% | -3% | -4 | 1.3% | CCc1ccc(NC(=O)COC(=O)/C(=C/c2ccccc2OC)c2ccccc2)cc1
-29% | -3% | 1 | 0.3% | COc1ccc(Nc2ccc(OC)cc2)cc1
x | -6% | x | -1.8% | CCCn1c(N)c(C(=O)COC(=O)/C=C/c2ccc(OC(F)F)c(OC)c2)c(=O)[nH]c1=O
x | -3% | x | -2.3% | C#CCOCCOCCOCCNc1nc(N2CCOCC2)nc(N2CCN(C(=O)CCCCCCCCCCNC(=O)[C@H]([C@@H](C)CC)n3cc(CCCCN=C(N)N)nn3)CC2)n1
-19% | -3% | x | 3.5% | CC(=O)Nc1nc2cc3c(cc2s1)OCCO3
-4% | 8% | 2 | 2.9% | C=CCn1c(C(C)NC(=O)c2ccccc2)n[nH]c1=S (stereo unspecified)
-7% | 2% | 10 | -2.1% | COCc1c(C(=O)NC2CCCCCC2)oc2ccccc12
20% | 30% | 7 | 0.0% | Cc1ccccc1C(=O)N1CCN(c2ccc(NC(=O)c3cccnc3)cc2)CC1
-27% | -5% | 4 | 0.3% | CNC(=S)NNC(=O)c1cccn(Cc2cccc(Cl)c2)c1=O
9% | -9% | 0 | -2.1% | COC(=O)c1[nH]c(C)c(/C(O)=C2\C(=O)C(=O)N(CCN3CCOCC3)C2c2cccs2)c1C (stereo unspecified)
-6% | u | 1 | u | COc1ccc(C(=O)/C=C/Nc2ccc(NC(C)=O)cc2)cc1OC
5% | -14% | x | 0.7% | CCOC(=O)n1cc(C(=O)c2ccccc2O)cn1
0% | 1% | 2 | -1.5% | COc1ccccc1CNC(=O)c1cccc2c1C(=O)N(Cc1cccnc1)C2
x | 10% | x | 0.6% | O=C(COC(=O)c1cc2ccccc2cc1O)NCc1ccccc1
2% | -11% | x | -0.5% | O=C(NC1CCCC1)C(c1ccc(Cl)cc1)N(C(=O)c1csnn1)C1CC1 (stereo unspecified)
6% | -13% | x | 3.6% | CC(=O)Nc1ccc(NS(=O)(=O)c2ccc3c(c2)oc(=O)n3C)cc1
-39% | -6% | 4 | 3.9% | Cc1c(/C(O)=C2\C(=O)C(=O)N(CCCN(C)C)C2c2ccccc2)cnn1-c1ccccc1 (stereo unspecified)
-4% | -13% | -1 | -3.7% | C=CCSC1=C(C#N)C(c2ccccc2)CC(=O)N1 (stereo unspecified)
4% | 1% | -6 | u | O=C(CCc1ccc(S(=O)(=O)N2CCOCC2)cc1)Nc1ccc2ccccc2c1
-48% | -3% | x | -0.3% | COn1c(-c2ccc(Cl)cc2)nc2ncccc21
x | -5% | x | -0.1% | CC(=O)c1cc2c(=O)c3ccccc3oc2nc1C
-61% | 26% | 1 | 3.5% | Cc1ccc(Nc2nc(/N=C/N(C)C)n[nH]2)cc1C
x | 0% | x | 1.9% | O=C(Cc1cccs1)NCCS(=O)(=O)N1CCN(c2cccc(Cl)c2)CC1
18% | u | -9 | u | CCc1ccc(C2C(C#N)=C(N)C(C#N)(C#N)C3=CCC(C(C)(C)C)CC32)cc1 (stereo unspecified)
-6% | 4% | 5 | -0.3% | CC(C)C(=O)Nc1ccc(Br)cc1Cl

Some of these compounds in order of their number in Rango release inh, lowest first.
miR-21 reporter | Rango release inh | GLA inh pH 4.5 | Rango-impB inh | smiles
6% | -13% | x | 3.6% | CC(=O)Nc1ccc(NS(=O)(=O)c2ccc3c(c2)oc(=O)n3C)cc1
x | -6% | x | -1.8% | CCCn1c(N)c(C(=O)COC(=O)/C=C/c2ccc(OC(F)F)c(OC)c2)c(=O)[nH]c1=O
-3% | -3% | -4 | 1.3% | CCc1ccc(NC(=O)COC(=O)/C(=C/c2ccccc2OC)c2ccccc2)cc1
0% | 1% | 2 | -1.5% | COc1ccccc1CNC(=O)c1cccc2c1C(=O)N(Cc1cccnc1)C2
-6% | 4% | 5 | -0.3% | CC(C)C(=O)Nc1ccc(Br)cc1Cl
-4% | 8% | 2 | 2.9% | C=CCn1c(C(C)NC(=O)c2ccccc2)n[nH]c1=S (stereo unspecified)
x | 10% | x | 0.6% | O=C(COC(=O)c1cc2ccccc2cc1O)NCc1ccccc1

(more compounds)
miR-21 reporter | Rango release inh | GLA inh pH 4.5 | Rango-impB inh | smiles
-7% | 4% | -2 | -1.0% | COc1ccc(CN2C(=O)c3cccnc3C2Nc2ccc(C)cc2)cc1 (stereo unspecified)
-3% | -5% | 1 | -4.0% | Cc1ccc(C(=O)NNC(=O)c2ccc(SCC3CCCO3)c([N+](=O)[O-])c2)cc1 (stereo unspecified)
1% | -3% | 4 | -4.1% | CN(C)S(=O)(=O)c1ccc(S(=O)(=O)N2CCCC2)cc1
-7% | -12% | x | 5.3% | Cc1snc(SCc2c(F)cccc2Cl)c1C#N
0% | 1% | -2 | -0.6% | CCn1c(COc2ccc(=O)n(-c3ccccc3)n2)nnc1SCC(=O)OC
-17% | 17% | 0 | -4.3% | CS(=O)(=O)N(CC(=O)Nc1ccccc1Cl)c1ccc(Cl)cc1
0% | -2% | x | 0.9% | COC(=O)c1cc(S(=O)(=O)N2CCN(c3ccc(OC)cc3)CC2)cn1C
10% | 15% | 2 | 1.8% | CC(C(=O)Nc1nccs1)c1ccc([N+](=O)[O-])cc1 (stereo unspecified)
-29% | -13% | -7 | -1.9% | Cc1c(C(=O)O)cnc2cc(-c3ccc(Cl)cc3)nn12
-1% | -7% | 2 | -1.0% | Nc1cc(C(=O)OCC(=O)NC(c2ccccc2)c2ccccc2)ccc1Cl
-4% | 20% | 6 | -4.6% | CCN(CC)CCn1c(N)cc(=O)[nH]c1=O
-6% | 8% | 4 | 0.8% | Cc1cc(C(=O)N2CCN(c3ncccn3)CC2)nn1C
-1% | 14% | x | -1.8% | Cc1ccc(N2CC(C(=O)NC3CC3)CC2=O)cc1 (stereo unspecified)
x | -6% | x | 0.0% | CN(C)c1ncnc2[nH]ncc12
-4% | -5% | 0 | 1.3% | COc1ccc(C(=O)Nc2ccc(C(=O)OCC(=O)c3ccccc3)cc2)cc1
x | -4% | x | 0.2% | O=C(COC(=O)c1cccnc1Cl)NC(=O)c1ccc(OC(F)F)cc1
-7% | 2% | 4 | -0.9% | CC(C)N1CCN(Cc2coc3ccccc3c2=O)CC1CCO (stereo unspecified)
10% | 5% | -1 | -3.9% | CSc1nnc(-c2ccco2)n1-c1ccccc1
26% | -10% | 4 | -0.5% | Cc1cccc(NC(=O)c2ccc([N+](=O)[O-])o2)c1C
9% | -15% | -14 | -5.9% | O=S(=O)(Nc1nc2ccccc2nc1Cl)c1ccc2ccccc2c1
x | 3% | x | 3.9% | N#Cc1c(N)n(C2OC(CO)C(O)C2O)c2ncnc(N)c12 (stereo unspecified)
-2% | 27% | -3 | -2.2% | CN(C)Cc1nc2ccccc2c(=O)n1Cc1nc(-c2cccc([N+](=O)[O-])c2)cs1
-3% | -3% | x | 0.5% | Cc1ccc(C(=O)N/C(=C\c2ccco2)C(=O)N2CCOCC2)cc1C
-10% | 21% | -6 | 4.0% | Cc1ccc(CSCC(=O)N/N=C/c2ccc(OCC(=O)Nc3ccc(C)cc3)cc2)cc1
2% | 1% | -7 | 4.7% | CCCC(CCC(=O)Nc1cc([N+](=O)[O-])ccc1O)C(=O)O (stereo unspecified)
-22% | 19% | x | 0.2% | S=c1[nH]c2ccccc2n1CCOc1ccccc1
0% | 11% | 9 | 2.7% | COc1cc(CNc2ccccc2Oc2cc(=O)n(C)c(=O)n2C)cc(OC)c1OC
-4% | 2% | 4 | -2.0% | CCCNS(=O)(=O)c1ccc2c(c1)CCCN2C(C)=O
x | -14% | x | -2.4% | Cn1nc(C(=O)NNC(=O)CCc2ccccc2Cl)c2ccccc2c1=O
-6% | 14% | -14 | 1.2% | CC(C)Sc1nc2c(c(=O)n(C)c(=O)n2C)n1Cc1ccc(Cl)cc1
-8% | 3% | -4 | -0.4% | O=C(/C=C/c1ccco1)Nc1ccccc1N1CCCC1
4% | -13% | 7 | -15% | CC(=O)C1=C(O)CC(c2ccccc2)CC1=NCCc1ccccc1 (stereo unspecified)
1% | -9% | 4&-7 | 3.3% | COC(=O)[C@@H]1C[C@@]2(O)[C@H](O)[C@H](O)[C@H](O)C[C@H]2N1C/C=C/c1ccccc1
-5% | -9% | 2 | -0.2% | CC(C)C(NS(=O)(=O)c1cccc2nsnc12)C(=O)NCCC1=CCCCC1 (stereo unspecified)
-11% | -2% | x | 4.3% | COc1ccc(NC(=O)NNC(=O)c2ccc(-c3ccccc3)cc2)cc1
-4% | 2% | -5 | -0.6% | O=C(O)CCC(=O)N1CN2CN(C(=O)CCC(=O)O)CC([N+](=O)[O-])(C2)C1
1% | 3% | x | -0.2% | CC(C)c1ccc(S(=O)(=O)N2CCC3(CC2)OCCO3)cc1
-3% | 7% | u | -1.4% | O=C(NCC(c1ccco1)N1CCN(c2ccc(F)cc2)CC1)OCc1ccccc1 (stereo unspecified)
-39% | -15% | x | -0.1% | Nc1ccc(-c2nc3ncccc3o2)cc1
-17% | -5% | -3 | 1.9% | CCOc1cc2c(cc1OC)C(c1cccc([N+](=O)[O-])c1)NCC2 (stereo unspecified)
-10% | -11% | 3 | 2.7% | Cc1ccc(-c2nc(N)c3c(-c4ccc(C)cc4)nn(C(C)(C)C)c3n2)cc1
-35% | 0% | 3 | -1.4% | COc1ccc(Nc2ncnc3ccccc23)cc1
x | -14% | x | 0.1% | COc1cc(Cl)c(C)cc1NC(=O)CSc1nnc(CN2CCCC2)o1
-4% | -5% | 0 | -1.7% | O=C(O)C1C2CC3C(OC(=O)C31)C2Cl (stereo unspecified)
-34% | -4% | 9 | -1.6% | CCOC(=O)c1c(C)[nH]c(N=Nc2ccccc2C)c1C
x | 0% | x | -1.1% | CC(=O)N1CCN(S(=O)(=O)c2cccc(C(=O)OCc3ccc(C(C)(C)C)cc3)c2)CC1
-7% | 0% | x | 0.7% | COc1ccccc1CNC(=O)COC(=O)c1cccc(S(=O)(=O)N2CCCC2)c1
-1% | 10% | x | 1.5% | O=C(c1ccco1)N(Cc1ccc(Cl)cc1)C1CCS(=O)(=O)C1 (stereo unspecified)
1% | -6% | x | 2.0% | Cn1c(CNC(=O)c2ccco2)nnc1SCC(=O)N1CCN(c2ccccc2F)CC1
-7% | 21% | -2 | -0.3% | O=C(Cn1cncn1)c1ccc(F)cc1F

(cont.)
miR-21 reporter | Rango release inh | GLA inh pH 4.5 | Rango-impB inh | smiles
-19% | -4% | 0 | 0.0% | CCCCOC(=O)c1ccc(NC(=O)c2cnccn2)cc1
-46% | 21% | -7 | 2.6% | Cc1nc(NC(=O)CSc2nnnn2C)sc1C
-9%&-2% | 0% | -8 | 0.5% | COc1ccc(CCCc2nnc(SCC(=O)Nc3ccc(C)c(C)c3)o2)cc1
-4% | 0% | 1 | -0.4% | CCc1nc2c(cnn2-c2ccc(Cl)cc2)c(=O)n1-c1ccc2c(c1)OCCO2
u | -5% | 1 | -0.7% | Cc1ccc(-c2csc3ncnc(Sc4nnc(CN5CCCCCC5=O)o4)c23)cc1
-2% | 15% | x | 0.8% | CCOc1ccc(C(=O)Oc2cc(C)[nH]c(=O)c2[N+](=O)[O-])cc1
1% | u | x | u | Cc1noc(C)c1C(=O)Nc1nccs1
-8% | 0% | -8 | -1.9% | CC1CCN(c2ccccc2N)CC1
-1% | 0% | 7 | 5.2% | O=C(COC(=O)c1ccccc1SCC(=O)NC1CCCCC1)NC1CCCCC1
24% | 0% | 2 | -1.8% | CCN(CC)C(=O)c1sc(NC(=O)C(Sc2ccccc2)c2ccccc2)c(C(=O)OC(C)C)c1C (stereo unspecified)
x | 14% | x | 3.1% | Cc1nc2cc(NC(=O)CS(=O)(=O)c3ccccc3)ccc2s1
4% | -7% | -4&-5 | -1.8% | CCC1=C(OC(=O)N(CC)CC)N2C(=O)OC(=NCCc3c[nH]c4ccccc34)[C@]2(C)[C@H]2C1=CC[C@H]1C(=O)NC(=O)[C@H]12
-12% | -11% | -6 | 3.9% | CC1(C)Cc2c(sc(NC(=O)c3ccco3)c2C#N)CO1

Not all compounds are listed; the hit share may differ from the screen's.
